Rango-impB inh – qHTS Assay for Inhibitors of Rango (Ran-regulated importin-beta cargo) - Importin beta complex formation | Importin subunit beta-1 (Homo sapiens), Q14974 | Rango CFP/YFP FRET sensor + importin beta, 45 min | Potency, µM (titrated, usually from 92.2 µM), inactives show at the highest dose inhibition of complex formation | 340,000 tested, 0.031% active | AID 540263, 2011; active = rising FRET ratio curve, often small or poorly fitted; inconclusive = mostly compound fluorescence or quenching in the first reads; inactive = flat curves in all reads;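 also: potency is read from the fitted curve at half-maximal effect; 0% = DMSO wells and 100% = buffer wells lacking importin beta; nearly all actives have a fitted effect of over 15% in size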
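FRET biosensor (snurportin 1 IBB flanked by EYFP and cerulean), 50 nM, with compound 5 min, then 0.125 microM importin beta in PBS, 1 mM DTT, 0.02% Tween-20, 0.1% BSA. CFP/YFP ratio read after 45 min at room temperature; pre-read flags interference.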
miR-21 FLuc – qHTS Assay for Modulators of miRNAs and/orActivators of miR-21; HeLa miR-21 FLuc reporter, luciferase, 48 h; Potency, µM (top dose mostly 38.3 µM), inactives show at the top dose reporter change, positive = more light; 340,000 tested, under 10 active; AID 2288, 2010; active = well fitted rising curve with a large enough effect; inconclusive = small, poorly fitted or top-dose-only effect; inactive = no such curve, though single readings can be large or run the other way;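 also: % of control where 0% means no effect; miR-21 action dims this reporter so a rising signal means less miR-21 action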
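Compounds were titrated across several concentrations (up to approximately 40 uM) and incubated 48 hours with HeLa miR-21-FLuc reporter cells (miR-21 target sequence downstream of FLuc, endogenous miR-21). Readout was firefly luciferase luminescence after lytic detection reagent.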
Rango release inh – qHTS Assay for Inhibitors of RanGTP induced Rango (Ran-regulated importin-beta cargo) - Importin beta complex dissociation; Biochemical FRET Rango-importin beta, RanGTP-induced dissociation; Potency, µM (doses to about 46.1 µM), for the others: top-dose activity change, negative = inhibition; 340,000 tested, 0.071% active; active means falling FRET ratio curve, often poorly fitted, with flat reads before Ran was added; inconclusive means other falling curves, or compound fluorescence or quenching; inactive means flat or rising ratio curve;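 also: potency is read from the fitted curve at half-maximal effect; % of control where 0% means no effect; nearly all actives have a fitted effect of over 45% in size; -100% = wells without RanGTP and RCC1; the record marks most hits as doubtful in a second field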
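Rango/importin beta premix (0.1/0.25 uM final), PBS + 1 mM DTT + 0.02% Tween-20 + 0.1% BSA; cpd 5 min RT; FRET pre-read; + RanGTP-RCC1 (0.6 uM Ran, 2 mM GTP, 0.2 uM RCC1); 45 min RT; FRET post-read, ex 430, em 486/530 nm.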
GLA inh pH 4.5 – qHTS Assay for Inhibitors of Human alpha-Galactosidase at pH 4.5; purified enzyme, 4-MU-alpha-Gal fluorescence, pH 4.5; activity change, negative = inhibition, % at 105 µM; 230,000 tested, under 10 active; inconclusive = small, poorly fitted or top-dose-only inhibition, or a rising curve; inactive = flat fitted curve, though single readings scatter; no compound was filed as active;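 also: 0% = full activity with enzyme and -100% = basal without enzyme; dose as in the result columns while the protocol names 77 µM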
Target sequence (P06280 whole entry, looked up): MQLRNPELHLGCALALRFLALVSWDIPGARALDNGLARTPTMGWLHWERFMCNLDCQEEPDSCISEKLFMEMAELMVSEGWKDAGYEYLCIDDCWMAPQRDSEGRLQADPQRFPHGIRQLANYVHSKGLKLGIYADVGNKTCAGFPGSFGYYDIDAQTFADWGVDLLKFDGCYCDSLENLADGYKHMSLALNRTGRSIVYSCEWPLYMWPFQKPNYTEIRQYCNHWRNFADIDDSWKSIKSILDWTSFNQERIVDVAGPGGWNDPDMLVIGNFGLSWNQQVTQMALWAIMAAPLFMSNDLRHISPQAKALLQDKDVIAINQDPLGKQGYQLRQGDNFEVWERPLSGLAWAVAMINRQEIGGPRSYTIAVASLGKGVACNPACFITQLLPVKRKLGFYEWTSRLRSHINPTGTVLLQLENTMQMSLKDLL
* hit, by the source's call; ? = inconclusive; · = no result given; & = joins results of further samples; [ ] = another dose, or the depositor's remark.

Values run as follows: Rango-impB inh	miR-21 FLuc	Rango release inh	GLA inh pH 4.5
Cc1c(C(=O)Oc2cccc3cccnc23)cccc1[N+](=O)[O-]
  2.6%	5%	1%	-5[21.1 µM]
CCOC(=O)N1CCN(C(=O)C2CCN(S(=O)(=O)c3ccc(Br)s3)CC2)CC1
  -4.3%	4%	18%	6
CCN(C(=O)CCN1C(=O)c2ccccc2S1(=O)=O)c1ccccc1
  2.6%	·	2%	·
CCOC(=O)CSc1nn(C)c(=S)s1
  -1.4%	-1%	?	7
O=C(CCC(=O)Nc1ccccc1Cl)NNC(=O)c1ccco1
  3.6%	-6%	-4%	-4
CC(C)OC(=O)C1C(=O)CC(C)(O)C(C(=O)OC(C)C)C1c1ccc([N+](=O)[O-])cc1 (centres undefined)
  0.0%	0%	15%	8
O=C(Nc1cccc(F)c1)Nc1ccc2c(c1)OCO2
  -0.6%	-26%	10%	·
COc1cc(C)nc(N2CCC(C(=O)NC3CCCCC3)CC2)n1
  -2.4%	-1%	-12%	-16
O=Nc1c(-c2c(O)[nH]c3cc(Br)ccc23)[nH]c2ccccc12
  -2.5%	18%	-5%	-3
COC(=O)c1ccc(=O)n(Cc2ccc3c(c2)OCO3)c1
  -1.3%	-4%	1%	2
O=C(Nc1cnc2ccccc2c1)N1CCOCC1
  -1.1%	-41%	0%	14
CCCC/C=C/C(NC(=O)c1ccc(-c2ccccc2)cc1)c1ccccc1 (centres undefined)
  3.2%	·	4%	6
CCNC(=S)N(CCc1ccccc1C)Cc1cc2cc(OC)c(OC)cc2[nH]c1=O
  -1.8%	2%	3%	?
O=C(CN1CCSc2ccccc21)NCCCc1ccccc1
  -3.6%	-24%	-10%	-5
CC(=O)N1CCCN(Cc2cn(-c3cccc(C)c3)nc2-c2cccc(F)c2)CC1
  -2.9%	-3%	3%	-11
CSc1cccc(NC(=S)N(Cc2ccccc2)Cc2ccccn2)c1
  -1.2%	4%	-5%	11
CC1(C(=O)N2CCN(c3ccccc3)CC2)CC1(Cl)Cl (centres undefined)
  0.4%	-1%	-5%	2
CC(C)NC(=O)c1onc(CSc2ccc(F)cc2)c1C(=O)O
  -0.7%	-8%	1%	-12
COc1ccccc1NC(=O)C1CCCN(c2cc(C)nc3ncnn23)C1 (centres undefined)
  -1.0%	-9%	8%	5
CC12CCC(=O)N1C(C(=O)Nc1nc(-c3ccc(F)cc3)cs1)CS2 (centres undefined)
  -0.7%	·	1%	·

The list goes on:
Values run as follows: Rango-impB inh	miR-21 FLuc	Rango release inh	GLA inh pH 4.5
Cn1c(SCC(=O)Nc2ccccc2F)nnc1-c1cc2ccccc2o1
  5.3%	1%	29%	2
CN(C)c1cc(=O)n2c(n1)SCCC2
  -0.3%	-2%	-4%	3
O=C(C1CCC1)N1CCN(c2ccc(C(F)(F)F)cc2[N+](=O)[O-])CC1
  0.6%	-3%	15%	·
COc1ccc(CN2CCc3ccc(NC(=O)c4ccncc4)cc3C2)c(F)c1
  0.9%	16%	-9%	·
CC(CCc1ccccc1)NC(=O)C1CCN(c2nnc(-n3cccc3)s2)CC1 (centres undefined)
  -0.3%	-14%	-5%	8
CCN(CC)c1ccc(/C=C2\CCC(/C=N/NC(=O)c3ccc(=O)n(C)c3)=C2N2CCOCC2)cc1
  ?	-4%	?	-27
N#C/C(=C\c1ccc(O)c(O)c1)C(=O)NCCCc1ccccc1
  ?	-17%	?	2&-27
CCCOc1ccc(C(=O)NCC2OCCc3ccccc32)cc1OC (centres undefined)
  -4.8%	-2%	-10%	-2
CSc1nsc(SC)c1C(N)=O
  -1.1%	-4%	11%	-7
O=S(=O)(c1cccc2cccnc12)N1CCc2ccccc21
  -0.8%	-5%	-15%	0
O=C(NCCOC(=O)c1ccc(C(=O)OCCNC(=O)c2ccccc2)o1)c1ccccc1
  -0.4%	-2%	-11%	2
CCN(c1ccccc1)S(=O)(=O)c1nnc(NC(=O)c2ccccc2OC)s1
  0.8%	-3%&-40%	22%	·
CC(=O)Nc1ccc(/C=N/Nc2nncc3ccccc23)cc1
  -0.8%	-54%	1%	·
COC(=O)c1ccc(-c2ccc(OC)c([C@H]3[C@H]4C=CC[C@@H](C)[C@@H]4C(=O)N3Cc3ccccc3)c2)cc1
  1.5%	-5%	-14%	-15
CCCc1cc(=O)oc2c(C)c(OCC(=O)NCCCn3ccnc3)ccc12
  5.5%	-1%	13%	·
CCN(CC)C(=O)c1[nH]cnc1C(=O)NCc1ccc(CNC(=O)OC(C)(C)C)cc1
  -1.5%	·	-5%	·
CCN1CCN(C(c2cc(OC)ccc2OC)c2nnnn2Cc2ccccc2)CC1 (centres undefined)
  -2.4%	-4%	5%	-1
O=C(COC(=O)CC1CC2CCC1C2)NCc1ccccc1 (centres undefined)
  -0.2%	·	19%	·
Cc1ccc(Cl)cc1N1CCN(S(=O)(=O)N2CCCCC2)CC1
  6.0%	6%	4%	3
COc1ccc(C)cc1NC(=O)c1ccc(CN2CCc3ccccc3C2)cc1
  0.2%	0%	12%	·

Further records
Values run as follows: Rango-impB inh	miR-21 FLuc	Rango release inh	GLA inh pH 4.5
COc1ccccc1NC(=O)/C(=N/OCc1ccc(C#N)cc1)C(C)=O
  -0.4%	-21%	-4%	-4
Cc1cccc(N2CCN(C(=O)C3(S(=O)(=O)c4ccc(Cl)cc4)CC3)CC2)c1C
  2.4%	-3%	-5%	0
c1ccc(COc2ccc(Nc3ncnc4nc[nH]c34)cc2)cc1
  -0.2%	-24%	-7%	0
Cc1ccsc1/C=N/n1c(-c2cc(-c3ccccc3)n[nH]2)n[nH]c1=S
  2.2%	-12%	8%	-14
CCOC(=O)c1cnc2ccccc2c1NCc1ccco1
  -1.7%	0%	4%	-8
CC(=O)[C@@]1(O)C(C)CC2C3C=C(C)C4=Cc5c(cnn5-c5ccccc5)C[C@]4(C)C3C(O)C[C@@]21C (some centres undefined)
  0.8%	?	9%	-2
O=C1CC(c2ccc(F)cc2)Sc2ccccc2N1 (centres undefined)
  -5.7%	-14%	0%	-4
Cc1ccccc1NC(=O)COC(=O)CCc1nc2ccccc2c(=O)[nH]1
  -0.7%	-8%	2%	-5
O=C(CSc1nnc(-c2cccs2)o1)N1CCCCC1
  -2.7%	-34%	-8%	0
COc1ccc2[nH]c(C)c(CCNC(=S)Nc3ccc(C)cc3)c2c1
  -2.6%	27%	21%	0
Cc1c(C(=O)Nc2ccc(C(=O)Nc3ccccc3)cc2)cccc1[N+](=O)[O-]
  0.6%	-5%	1%	·
Cc1sc2nc(C(C)Nc3ccccc3N3CCOCC3)[nH]c(=O)c2c1C (centres undefined)
  ?	15%	-16%	0
COc1cccc(C2=NOC(C(=O)Nc3ccc(OC)c(OC)c3)C2)c1 (centres undefined)
  -0.8%	1%	-18%	3
COn1c(SCc2cccnc2)nc2ccccc2c1=O
  1.8%	-31%	-6%	1
CS(=O)(=O)c1cccc(S(=O)(=O)N2CCN(c3ccccn3)CC2)c1
  -3.1%	0%	4%	·
CCOc1ccc(S(=O)(=O)Nc2ccncc2)c(C)c1C
  4.8%	3%	-2%	-2
Cc1cccc(-c2cc(C(=O)N3CCCc4ccccc43)c3ccccc3n2)c1
  0.3%	-5%	-9%	8
COc1ccc(Cl)cc1C(=O)Nc1cccc(-c2ccc3nncn3n2)c1
  0.5%	-15%	-7%	-11
O=C(CC(Sc1ccc(Br)cc1)C(=O)O)c1ccc(F)cc1 (centres undefined)
  2.2%	17%	-1%	·
O=C(O)c1ccc(/C=N/n2cc(-c3ccccc3)[nH]c2=S)cc1
  -5.8%	0%	-16%	1

One compound at a time, as listed above. Order of screens: Rango-impB inh, miR-21 FLuc, Rango release inh, GLA inh pH 4.5
`Cc1cccc(N2CCN(C(=O)C3(S(=O)(=O)c4ccc(Cl)cc4)CC3)CC2)c1C` is entered as 2.4%, -3%, -5%, 0
`Cc1sc2nc(C(C)Nc3ccccc3N3CCOCC3)[nH]c(=O)c2c1C` (centres undefined) is entered as ?, 15%, -16%, 0

Next entries follow.
Values run as follows: Rango-impB inh	miR-21 FLuc	Rango release inh	GLA inh pH 4.5
Cc1ccc(-c2nnc(SCC(=O)Nc3ccccc3N3CCOCC3)o2)cc1
  0.5%	-54%	2%	-2
COc1ccc(C2C(C(=O)Nc3cc(OC)c(OC)c(OC)c3)c3ccccc3C(=O)N2C)cc1OC (centres undefined)
  3.0%	-3%	30%	3
CSc1nnc(-c2ccncc2)n1CCCN1CCCC1=O
  2.7%	-7%	-7%	-15
O=C(NCc1n[nH]c(=S)n1-c1ccc(Br)cc1)c1ccc(S(=O)(=O)N2CCCC2)cc1
  -1.6%	-2%	-10%	-1
Cc1ccc(CN2CCN(Cc3cnn(-c4ccc(Cl)cc4)c3)CC2CCO)o1 (centres undefined)
  6.2%	-1%	10%	-18
Cc1nn(C)c(Cl)c1NC(=O)OCc1ccccc1
  -0.9%	0%	-7%	-2
CC1=C(C(=O)Nc2ccccc2Cl)C(c2ccc(N(C)C)cc2)NC(=O)N1 (centres undefined)
  ?	-12%	-23%	-11
COc1cccc(COCC(O)CN2CCC(C(N)=O)CC2)c1 (centres undefined)
  0.4%	10%	17%	·
CCOC(=O)c1ccccc1NC(=O)CN(c1ccccc1OCC)S(C)(=O)=O
  -0.8%	-10%	0%	1
CCC/C=C1/CCCOC(C(=O)NCCNCCO)(C(F)(F)F)C1 (centres undefined)
  -0.6%	·	-4%	·
CCc1ccc(NC(=O)C(NS(=O)(=O)c2ccc3c(c2)CCN3C(C)=O)C(C)C)cc1 (centres undefined)
  -0.9%	-1%	0%	·
COc1cc(C(=O)NNC(=O)C2CC=CCC2C(=O)O)cc(OC)c1OC (centres undefined)
  -1.0%	22%	21%	-1
CC(=O)c1sc(N/N=C\c2ccc(C)cc2)nc1C
  3.9%	-98%	17%	-8
O=C(O)c1cnc2[nH]c3ccccc3n2c1=O
  1.4%	-4%	5%	-10
CCc1ccccc1NC(=O)CN(C)C(=O)CSc1nnc(Nc2cccc(C)c2)s1
  -1.1%	-1%	-9%	4
CCCCCC(C(=O)O)C(C)CC(=O)NC1CCCCC1 (centres undefined)
  0.9%	-4%	-4%	-8
COc1ccc(-n2nc(C(=O)NCC(=O)N3CCCC3)c3ccccc3c2=O)cc1
  -1.1%	-7%	-6%	·
O=C(CSc1nc2ccccc2o1)Nc1nc(-c2ccccc2)cs1
  -0.8%	-44%	0%	-1
O=C1C2CCCN2C(c2ccc(Br)cc2)N1c1ccc(F)cc1 (centres undefined)
  -3.2%	-3%	?	-6
Cc1ccc(P(C)(=O)c2ccc(C)cc2)cc1
  0.3%	-3%	1%	5
O=C1NC2=C(C(=O)CCC2)C(c2ccccc2)N1 (centres undefined)
  0.3%	6%	-5%	·
COc1ccc(NC(=O)c2ccc(-n3cncn3)c([N+](=O)[O-])c2)cc1OC
  1.8%	·	32%	·
CCOC(=O)c1cc(C#N)c(Oc2ccc(F)cc2)nc1-c1ccccc1
  1.9%	12%	-2%	-17

Exported bar-delimited: two of the compounds above
canonical_smiles | Rango-impB inh | miR-21 FLuc | Rango release inh | GLA inh pH 4.5
COc1ccc(NC(=O)c2ccc(-n3cncn3)c([N+](=O)[O-])c2)cc1OC | 1.8% | · | 32% | ·
CSc1nnc(-c2ccncc2)n1CCCN1CCCC1=O | 2.7% | -7% | -7% | -15

Bioassay records (PubChem)

Some of the compounds tested, so the mix of outcomes need not match the whole.
